Compound activity from PubChem.
Calb biofilm kill – mixtures killing C. albicans biofilm | C. albicans biofilm persisters + clotrimazole, fluorescence viability; primary screen in compound mixtures of four per well | inhibition, % at 7.6 µM | 0.02% of 120,000 active | AID 1242;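 active = inhibition above 30.3% in the primary screen of four-compound pools, then above 30% when the compound was retested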;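 also: compounds exposed to preformed 24 h biofilms for 48 h; the number belongs to the whole pool; some results filed as inactive read as strong as hits; inactives centre near 12; 0% = biofilm with clotrimazole alone and 100% = kill control; retested singly at about 60 µM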
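System: C. albicans CAF4-2 wild-type biofilms; Medium: RPMI/MOPS medium, pH 7.0; Reagent: Clotrimazole, 50 µg/mL; Times: biofilm formation 24 h, compound exposure 48 h, 37 °C; Detection: 2-h Alamar Blue fluorescence, 535/590 nm excitation/emission; Evaluation: percent inhibition of biofilm viability.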
Numbers without * were called inactive; & = joins results of further samples.

smiles,Calb biofilm kill
CCn1cc(CN2CCCC(C(=O)c3sccc3C)C2)cn1 (stereo not given),11.9
O=C1NC(=O)N(c2cccc(Br)c2)C(=O)/C1=C/c1ccsc1,2.1
C=Cc1ccc(Cn2c(C(=O)O)c(C=O)c3ccccc32)cc1,18.1
CCN(CC)CCN1Cc2ccccc2C1=N,15.6
CCOP(=O)(OCC)C(NC(=O)CC(C)C)C(Cl)(Cl)Cl (stereo not given),-2.5
CC(=NCCCn1ccnc1)c1c(O)n(-c2ccccc2)c(=O)[nH]c1=O,19.3
O=C(Nc1nc(-c2ccccc2)c(-c2ccccc2)s1)c1ccc(S(=O)(=O)N(CCCl)CCCl)cc1,16.7
CCOc1ccc(Cl)cc1CNCCc1ccccc1F,19.3
O=S(=O)(c1ccc(Cl)cc1)N1CC1c1ccccc1 (stereo not given),18.2
CC(/C=C(\C)Nc1ccccc1)=Nc1ccccc1,11.8
CC(C)(C)NC(=S)N1CCn2cccc2C1c1cccnc1 (stereo not given),9.0
NS(=O)(=O)c1ccc(N=Nc2c(O)[nH]c(=S)[nH]c2=O)cc1,3.3
O=C(COC(=O)Cc1ccccc1)Nc1ccc(F)cc1,20.8
COc1ccc(N2C(=O)NC(=O)/C(=C/c3ccc([N+](=O)[O-])s3)C2=O)cc1,30.3
C=CCN(CC=C)C(=O)Nc1ccc(OCC)cc1,3.6

(list continues)
smiles,Calb biofilm kill
Cn1c(O)c(/C=N/NC(=O)c2ccncc2)c(=O)[nH]c1=S,6.3
CC12CC[C@H]3[C@@H](CCC4(O)C[C@H](O)CCC34/C=N/NC(=O)c3ccccc3O)C1(O)CCC2C1=CC(=O)OC1 (stereo not given in full),9.4
COc1ccc(C(=O)N2CCCC2=O)cc1,9.4
Cc1cc(C=C2C(=O)N(C)C(=S)N(C)C2=O)c(C)n1-c1cccnc1,2.1
COc1cc(N2CCOCC2)ccc1/C=C1\C(=O)NC(=O)N(C2CCCCC2)C1=O,14.4
O=C(COc1ccccc1F)N1CCN(CCN2C(=O)c3cccc4cccc(c34)C2=O)CC1,14.6
C#CCOc1ccc2c(c1)c(C(C)=O)c(C)n2Cc1ccccc1,15.3
CN(Cc1c[nH]c2ccccc12)C1CCCCC1,-1.4
COc1ccc(C2NCCc3[nH]cnc32)cc1 (stereo not given),7.0
CC12CCC3C(CCC4C/C(=N/O)CCC43C)C1CCC2O (stereo not given),2.8
N=C1c2ccccc2CN1CC(=O)c1ccccc1,7.9
Cc1cc(C)c2c(c1)-c1cc(C)nn1C(c1cccnc1)N2 (stereo not given),13.3
O=c1c2ccccc2nc(-c2ccco2)n1-c1ccccc1,-10.0
Brc1ccc(C2N3CCCN23)cc1 (stereo not given),13.3
CCOP(=O)(Cc1cc(C#N)oc1C)OCC,18.3

Other compounds:
smiles,Calb biofilm kill
O=c1[nH]c(=O)n(CC2CCCO2)c(O)c1/C=C1\C=Nc2ccccc21 (stereo not given),7.5&0.6
CCOC(=O)c1ccc(N=C(CC)c2c(O)n(C)c(=O)n(C)c2=O)cc1,15.5
C[N+]1(C)CCc2cc3c(cc2[C@H]1[C@@H]1OC(=O)c2c1ccc1c2OCO1)OCO3,12.7
O=S(=O)(F)c1ccc2nc(-c3cccc(Sc4ccccc4)c3)cc(Cl)c2c1,14.1
CNC(=O)Nc1ccc(C(=O)N/N=C\C23CC[C@@H](O)CC2(O)CC[C@@H]2[C@@H]3CCC3(C)C(C4=CC(=O)OC4)CCC23O)cc1 (stereo not given in full),10.5
O=C1CCN(C(=O)CNC(=O)Cc2ccccc2)CC1,10.2
COC(=O)C(O)(c1ccc(NC(=O)c2ccccc2)cc1)C(F)(F)F (stereo not given),14.0
CN1C2CCC1CC(=NO)C2,14.9
CCCCC(=O)N/N=C/c1c(O)n(C2CC2)c(=S)[nH]c1=O,11.3
CCCCCn1c(=O)c(C(=O)NCc2ccco2)c(O)c2ccccc21,56.0
CC(C)N1CCN(Cc2cc3c(cc2Cl)OCO3)CC1CCO (stereo not given),23.8
CSc1ccc(C(=O)C2CCCN(Cc3cccnc3)C2)cc1 (stereo not given),11.0
O=C1NC(=O)N(Cc2cccs2)C(=O)/C1=C/c1ccc(N2CCOCC2)cc1,20.6
Cc1ccc(N2C(=O)NC(=O)C(CCc3ccccn3)(Cc3ccc(F)cc3)C2=O)cc1 (stereo not given),-2.5
O=C1NC(=O)N(Cc2ccc(F)cc2)C(=O)/C1=C\c1ccc([N+](=O)[O-])s1,25.4

(cont.)
smiles,Calb biofilm kill
C=CCN1CC[C@@]2(C)c3cc(O)ccc3CC1[C@@H]2C,17.9
Cc1ccc(CN2C3CCCC2CC(NC(=S)NCc2ccccc2)C3)cc1 (stereo not given),15.0
CC1CCCN(CC(=O)N2CCCc3ccccc32)C1 (stereo not given),7.0
COc1ccccc1N=Nc1c(O)[nH]c(=S)[nH]c1=O,-2.4
CN1C(=O)/C(=C\c2ccc(N3CCCCCC3)cc2)C(=O)NC1=S,18.5
C=CCn1c(O)c(/C(C)=N/NC(=S)Nc2ccccc2)c(=O)[nH]c1=O,4.4
Cc1ccc2c(c1)C1CN(C)CCC1N2C(=O)c1cccs1 (stereo not given),20.2
C=CCn1c(O)c(C=NCCCOc2ccc(CC)cc2)c(=O)[nH]c1=S,4.1
O=C(c1cccc([N+](=O)[O-])c1)C12CN3CN(CN(C3)C1)C2,1.1
O=[N+]([O-])c1ccc(N2CCCCCC2)c2ncccc12,9.1
CCOc1ccc2nc(N=Nc3c(O)[nH]c(=S)[nH]c3=O)sc2c1,12.8
Cc1cc(Cl)nc(N)n1,14.6
FC(F)=C(F)CCSc1ncn[nH]1,10.5
Cc1c(C(=O)c2ccccc2)c2ccccc2n1C,24.0
CCN(CC)c1ccc(/C=C2\C(=O)NC(=O)N(CC3CCCO3)C2=O)cc1 (stereo not given),11.8

(more compounds)
smiles,Calb biofilm kill
O=c1c2ccc(Cl)cc2[nH]c(=S)n1-c1cccnc1,19.7
CC(C)c1ccc(-n2c(O)c(/C=N/NC(=O)c3ccncc3)c(=O)[nH]c2=O)cc1,17.8
Cc1nn(Cc2ccccc2Cl)c(C)c1C(=O)OCC(=O)NC1CCCC(C)C1C (stereo not given),17.3
Cc1ccsc1C(=O)C1CCCN(Cc2cn(C)nc2C)C1 (stereo not given),10.5
C=CCN1C(=O)NC(=O)/C(=C\c2ccc(-c3ccccc3[N+](=O)[O-])o2)C1=O,9.4
Cc1nc2ccccc2c(=O)n1-c1cc(F)ccc1F,-0.4
CCOP(=O)(OCC)c1ccc(OP(=O)(c2cccc([N+](=O)[O-])c2)c2cccc([N+](=O)[O-])c2)cc1,12.6
CCN1CCc2ccccc2C1,21.7
CN1C(=O)CN=C(c2ccc(Cl)cc2)c2cc(Cl)ccc21,-4.1
O=C(N/N=C/c1c(O)n(CCC2=CCCCC2)c(=S)[nH]c1=O)c1ccccc1,7.6
O=C(Cn1c(=O)n(CC2CS2)c2ccccc21)N1CCCCCC1 (stereo not given),15.7
COc1cccc(CCNCc2c(F)cccc2F)c1,2.1
CCc1cc2c(N3CCN(C)CC3)ncnc2s1,14.0
c1ccc(NC2=NCCS2)cc1,29.9
CSc1ccccc1C(=O)C1CCCN(Cc2ccncc2)C1 (stereo not given),18.2

(continued)
smiles,Calb biofilm kill
COc1cc2[nH]c(=S)n(-c3ccccc3)c(=O)c2cc1OC,2.5
Cn1c(CN2CCN(C(=O)COc3ccccc3)CC2)nc2cc([N+](=O)[O-])ccc21,22.3
CN1CCC2(CC1)CC(NC=O)c1ccccc1O2 (stereo not given),15.6
COCCN1C(=O)NC(=O)/C(=C\c2ccc(Br)cc2)C1=O,0.8
CCc1ccccc1N1C(=O)CC(=O)NC1=O,18.6
CC1(C)CC(N(CCc2ccccc2)Cc2ccccc2)CCO1 (stereo not given),14.2
CC(=O)c1ccc2c(c1)OCO2,6.8
COc1ccc(CCn2c(O)c(/C=N/NC(=O)c3ccncc3)c(=O)[nH]c2=O)cc1OC,14.0
CCOC(=O)c1[nH]ncc1CN1CCCC(C(=O)c2cccc(Cl)c2)C1 (stereo not given),29.4
O=[N+]([O-])c1ccc(C2[C@H]3C(c4ccccc4)=NC4(CCCC4)N23)cc1 (stereo not given in full),14.7
Cc1nc2c(c(=O)[nH]1)C(c1ccccc1Cl)c1c(c3ccccc3oc1=O)O2 (stereo not given),19.8
CC[n+]1c(SC)ccc2cc(OC)ccc21,12.8
CC(NC(=O)Oc1ccccc1)C(c1cccs1)N1CCOCC1 (stereo not given),17.6
COc1ccccc1CCNC1C2CC3CC(C2)CC1C3 (stereo not given),5.2
COc1ccc(OC)c(N2C(=O)NC(=O)/C(=C/c3ccc([N+](=O)[O-])s3)C2=O)c1,18.9

Additional compounds follow.
smiles,Calb biofilm kill
O=c1c2ccccc2nc(/C=C/c2ccc([N+](=O)[O-])o2)n1-c1ccc(O)cc1,29.0
CNc1cc(N2CCN(C)CC2)ccc1[N+](=O)[O-],6.6
CC(=O)[C@@]1(O)CC[C@H]2[C@@H]3CC=C4C[C@@H](O)CC[C@]4(C)[C@H]3CC[C@@]21C,15.4
Cc1cccc(N2C(=O)NC(=O)/C(=C\c3cc(C)n(-c4sc5c(c4C#N)CCCC5)c3C)C2=O)c1C,24.6
CCOC(=O)C1=C(N)OC2=C(C(=O)CCC2)[C@]12C(=O)N(CC(N)=O)c1ccccc12,20.0
O=C(Nc1ccccc1)OC1CN=C(N[N+](=O)[O-])NC1 (stereo not given),-0.9
CC(Cc1cccs1)NCc1ccccc1 (stereo not given),7.0
CC1=CC(=C2C(=O)NC(=S)NC2=O)C=C(C(F)(F)F)N1Cc1ccccc1,17.6
C=CCn1c(O)c(C(C)=O)c(=O)[nH]c1=O (tested in a mixture with another compound),18.8
CC1=NN(Cc2c[nH]c3ccccc23)C(C)(C)C1,3.1
CN(C)C(=O)Oc1ccc([N+](=O)[O-])cc1,25.8
COc1cccc(-n2c(/C=C/c3ccc(O)c(O)c3)nc3ccccc3c2=O)c1,3.2
Cc1nc2c(c(=O)[nH]1)C(c1ccc([N+](=O)[O-])cc1)c1c(c3ccccc3oc1=O)O2 (stereo not given),6.5
CCOP(=O)(OCC)c1cc(CC)ccc1O,27.6
NP(=O)(Oc1ccc(Cl)cc1)Oc1ccc(Cl)cc1,4.8

Of the compounds above, 5 have an aryl thioether with sulfur outside any ring.
smiles,Calb biofilm kill
O=S(=O)(F)c1ccc2nc(-c3cccc(Sc4ccccc4)c3)cc(Cl)c2c1,14.1
CSc1ccc(C(=O)C2CCCN(Cc3cccnc3)C2)cc1 (stereo not given),11.0
FC(F)=C(F)CCSc1ncn[nH]1,10.5
CSc1ccccc1C(=O)C1CCCN(Cc2ccncc2)C1 (stereo not given),18.2
CC[n+]1c(SC)ccc2cc(OC)ccc21,12.8

Remaining list, next part.
smiles,Calb biofilm kill
Cc1nn(Cc2ccccc2Cl)c(Cl)c1C(=O)OC(C(=O)NC(N)=O)C(C)C (stereo not given),3.0
Cc1cc(C(=O)NP(=O)(N2CCOCC2)N2CCOCC2)c(C)n1C1CC1,12.0
COP(=O)(OC)C(NS(=O)(=O)c1ccccc1)C(Cl)(Cl)Cl (stereo not given),20.6
COc1ccc(C)cc1NC(=O)c1c(C)nn(Cc2ccccc2)c1Cl,12.8
CCNC(=O)NC(=O)C(C)OC(=O)c1c(C)nn(Cc2ccccc2Cl)c1Cl (stereo not given),9.2
CCc1ccccc1N1C(=O)NC(=O)/C(=C\c2cc(C)n(C)c2C)C1=O,16.6
CCC(=O)CC(c1ccccc1)c1c(O)c2ccccc2sc1=O (stereo not given),5.6
O=C(CN1CCCCC1)c1cccc(Br)c1,19.3
Cc1cc(/C=C2\C(=O)NC(=O)N(c3ccc(Cl)cc3)C2=O)c(C)n1-c1sc2c(c1C#N)CCCC2,-0.7
CCOC(=O)C1=CC(=C2C(=O)N(CC)C(=S)N(CC)C2=O)c2ccccc2O1,13.7
CN1C(=O)C(=Cc2ccc(OCCN(C)c3ccccn3)cc2)C(=O)N(C)C1=O,13.9
CNS(=O)(=O)c1ccc(N=Cc2c(O)n(-c3ccccc3)c(=O)[nH]c2=O)cc1,7.2
COc1cccc(N2C(=O)NC(=O)/C(=C\c3ccc([N+](=O)[O-])s3)C2=O)c1,5.0
CN(C)C(=O)Oc1ccc(C(=O)c2ccccc2)cc1,14.4
CN1CCN(c2ccc([N+](=O)[O-])c(N3CCCCC3)c2)CC1,25.1

Going on with the list.
smiles,Calb biofilm kill
Cc1cccc(N2C(=O)NC(=O)/C(=C\c3cnc(-c4ccccc4)nc3)C2=O)c1,12.8
CCOP(=S)(NN(Cc1ccccc1)C(=O)c1ccccc1)OCC,20.0
O=C(O)CCn1cc(C=C2C(=O)NC(=S)NC2=O)c(-c2cc3ccccc3oc2=O)n1,30.3
O=C(c1cc([N+](=O)[O-])ccc1N1CCNCC1)N1CCOCC1,13.2
CCC1(OC(=O)CN)C(=O)OCc2c1cc1n(c2=O)Cc2cc3ccccc3nc2-1 (stereo not given),23.6
CCC(C)n1c(O)c(C=NC(C)c2ccccc2)c(=O)[nH]c1=S (stereo not given),7.9
Cc1ccc(C)c(-n2c(C)nc3ccccc3c2=O)c1,23.4
O=S1(=O)CCN(CCc2c[nH]c3ccccc23)CC1,11.8
COC(=O)C1=Nc2ccccc2/C1=C\c1c(O)n(-c2ccc(Br)cc2)c(=O)[nH]c1=O,14.7

The list is partial; count on the stated rates, not on these rows.
